ClpP mod = qHTS Assay for Activators of ClpP; ATP-dependent Clp protease proteolytic subunit (Bacillus subtilis (strain 168)), P80244; purified B. subtilis ClpP, FRET peptide cleavage, 20 min; Potency, µM (series often up to 57.5 µM), for inactives: at the top dose activity change, negative = active; actives 1.9% (n = 340,000); AID 651965, 2013; active = well fitted falling curve with a large enough effect; inconclusive = small, poorly fitted or top-dose-only effect; inactive = no such curve, though single readings can be large or run the other way; note: potency is the fitted concentration of half-maximal effect; the source files actives as falling curves though it sought activators and does not explain the sign; nearly all actives have a fitted effect of over 65% in size; many hits overshoot -100%
Target sequence (P80244 whole entry, looked up): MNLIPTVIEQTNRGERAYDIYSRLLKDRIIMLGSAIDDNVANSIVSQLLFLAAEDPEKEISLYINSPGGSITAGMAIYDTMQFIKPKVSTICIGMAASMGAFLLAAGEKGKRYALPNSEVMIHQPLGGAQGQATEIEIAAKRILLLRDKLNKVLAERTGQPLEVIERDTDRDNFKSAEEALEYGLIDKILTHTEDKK
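ClpP 10 microg/mL final, pH 8 Tris/KCl buffer with BSA, glycerol, Tween-20; compound pinned in; FRET-FV substrate; RT 20 min; Ex320/Em430; ΔFRET vs ADEP 5.8 microM, DMSO, no enzyme.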
gsp antag = antagonizes gsp, the McCune-Albright syndrome mutation. actives 0.4% (n = 340,000). gsp-mutant cells, cAMP HTRF, 30 min; control for the full effect not named in the record. Potency, µM (titrated, usually from 76.9 µM), without a hit: at the top dose activity change, negative = inhibition, actives largely listed as inhibitors. AID 624288; active = falling curve of any shape with a large fitted effect; inconclusive = falling curve, mostly with a smaller effect; inactive = flat or rising curve; cell line not stated here;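 note: intracellular cAMP measured with PDE inhibitor Ro 20-1724 present during compound exposure; potency is the fitted concentration of half-maximal effect; % is set by controls: 0 for no effect and ±100 for the full control effect; nearly all actives have a fitted effect of over 65% in size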
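HTRF cAMP read-out (cAMP-d2 plus anti-cAMP antibody-K in lysis buffer, 30 min RT). Before lysis, cells are exposed to compounds with […] for 30 min at 37C in DPBS containing Ca/Mg, BSA and Tween 20.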
Menin MLL FP FL = inhibitors of human menin-MLL interaction, wild-type MLL peptide; FP activity change, % at 61.4 µM; Fluorescence polarization, fluorescein-MLL peptide displacement from menin; AID 1766; 290,000 tested, under 10 active; inconclusive = falling polarisation curve, or a change in total fluorescence; inactive = total fluorescence flat and polarisation flat or rising; no compound was filed as active; the % refers to the polarisation; negative = inhibition;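 note: % of control where 0% means no effect; inhibitors lower the polarisation; unlabelled MLL peptide was the positive control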
CtBP-E1A inh = inhibitors of CtBP/E1A interaction. AID 651724. actives 0.49% (n = 340,000). activity change, % (no concentration beside the values). AlphaScreen GST-E1A/His-CtBP binding, 1536-well; hits give low values; control for the full effect not named in the record; in the data active means activity change below about -65%; inconclusive means about -30% to -65%; inactive means above about -30%; note: % is set by controls: 0 for no effect and ±100 for the full control effect; compound concentration not given in the record
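Steps: dispense buffer (Tris pH 8.0, NaCl 300 mM, TCEP 1 mM, BSA, Tween 20); add 5X protein mix (GST-E1A, His-CtBP, 125 nM each); pin 23 nL compound; 2 h at 37 °C, dark; add 5X beads (50 ug/mL); 1 h; read.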
Sfp PPTase inh = Sfp phosphopantetheinyl transferase inhibition; Potency, µM, for the others: max response, negative = inhibition, actives largely listed as inhibitors; AID 1490; Biochemical Sfp PPTase activity, qHTS; actives 3.5% (n = 310,000); Q9F4F7; active = well fitted inhibition curve with a large enough effect; inconclusive = small, poorly fitted or top-dose-only effect, or another doubt; inactive = no such curve, though single readings can be large or run the other way;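 note: the enzyme is Sfp with the accession as filed and its product quenches rhodamine fluorescence; potency is the fitted concentration of half-maximal effect; 0% = enzyme reaction without inhibitor and -100% = no enzyme wells; top concentration of the series not given in the record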
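Sfp 15 nM + cpd, 15 min RT; start w/ rhodamine-CoA 5 uM, BHQ-2-YbbR 12.5 uM (final); 50 mM Hepes pH 7.6, 10 mM MgCl2, 0.01% NP-40, 0.01% BSA; read 525/598 nm at 0 and 30 min.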
TRPV1 potentiator = potentiators of human vanilloid receptor 1 (TRPV1) | Q8NER1 | TRPV1-expressing cells, Fluo-8 calcium influx, capsaicin EC20 potentiation; host cell line not named in the record; control for the full effect not named in the record | potentiation, % at 8.33 µM | actives 0.02% (n = 320,000) | AID 540277; active means potentiation above 80%; inconclusive means 30% to 80%; inactive means below 30%; note: 0% is about no effect
Target sequence (Q8NER1 whole entry, looked up): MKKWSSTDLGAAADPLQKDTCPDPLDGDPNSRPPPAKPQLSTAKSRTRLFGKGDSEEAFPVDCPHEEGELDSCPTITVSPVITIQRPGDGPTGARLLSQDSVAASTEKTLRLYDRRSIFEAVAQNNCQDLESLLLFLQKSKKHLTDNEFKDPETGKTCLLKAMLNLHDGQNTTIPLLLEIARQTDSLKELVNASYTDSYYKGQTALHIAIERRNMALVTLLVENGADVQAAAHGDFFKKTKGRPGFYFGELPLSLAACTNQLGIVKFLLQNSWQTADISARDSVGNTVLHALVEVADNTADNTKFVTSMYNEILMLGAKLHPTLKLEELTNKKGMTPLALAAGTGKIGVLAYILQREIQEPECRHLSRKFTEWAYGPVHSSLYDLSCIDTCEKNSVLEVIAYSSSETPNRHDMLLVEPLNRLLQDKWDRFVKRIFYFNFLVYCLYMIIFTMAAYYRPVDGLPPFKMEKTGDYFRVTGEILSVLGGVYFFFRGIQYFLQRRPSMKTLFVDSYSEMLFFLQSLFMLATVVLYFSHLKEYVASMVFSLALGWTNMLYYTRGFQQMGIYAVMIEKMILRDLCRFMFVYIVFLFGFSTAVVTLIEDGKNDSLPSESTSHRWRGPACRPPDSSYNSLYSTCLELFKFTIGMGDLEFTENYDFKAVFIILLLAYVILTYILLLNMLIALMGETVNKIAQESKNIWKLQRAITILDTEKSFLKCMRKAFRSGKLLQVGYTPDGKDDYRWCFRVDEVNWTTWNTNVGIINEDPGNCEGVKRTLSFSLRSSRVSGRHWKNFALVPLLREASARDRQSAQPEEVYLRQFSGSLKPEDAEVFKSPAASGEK
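TRPV1-expressing cells were cultured overnight at 35.5C and loaded with Fluo-8 calcium dye for 40 to 90 min at room temperature. After a 10 s baseline, compound was added and calcium influx was read kinetically for 3 min (ex 480/em 520 nm).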
gsp ag = agonists of gsp mutant (McCune-Albright syndrome) | gsp mutant cells, cAMP HTRF, 30 min; control for the full effect not named in the record | Potency, µM (doses to about 76.9 µM), for inactives: at the highest dose activation (cAMP increase), actives largely listed as activators | actives 0.13% (n = 340,000) | AID 624287; active = well fitted activation curve with a large enough effect; inconclusive = small, poorly fitted or top-dose-only effect, or another doubt; inactive = no such curve, though single readings can be large or run the other way; cell line not stated here;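 note: phosphodiesterase inhibitor Ro 20-1724 added with compounds to block cAMP breakdown; potency is the fitted concentration of half-maximal effect; nearly all actives have a fitted effect of over 60% in size; about a fifth of the inactives were tested at one dose only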
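Cells in DMEM/10% FBS with G418 were pretreated with compounds in DMSO plus […] (300 uM stock) for 30 min at 37C. cAMP was measured by HTRF (cAMP-d2 plus anti-cAMP antibody-K) after 30 min at room temperature.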
* marks the source's active call; other numbers are inactive results; ? = inconclusive; nt = no result given; & = joins results of further samples; [ ] = remark or other dose.

compound,ClpP mod,gsp antag,Menin MLL FP FL,CtBP-E1A inh,Sfp PPTase inh,TRPV1 potentiator,gsp ag
COc1cccc(-c2[nH]nc3c2C(c2ccsc2)C(C#N)=C(N)O3)c1 (stereo not given),-0.4%,0%,3.1,0,6%,3,?
Cc1cc(=O)c(C(=O)O)cn1Nc1ccc(Cl)cc1,-1.0%,1%,-7.8,7,8%,1,-42%[inhibitor]
C[C@H](CO)N1C[C@H](C)[C@@H](CN(C)C(=O)Nc2ccc(C(F)(F)F)cc2)Oc2c(NC(=O)c3ccncc3)cccc2C1=O,0.6%,-2%,nt,5,nt,nt,nt
Nc1nnc(SCc2cccnc2)s1,-0.1%,-1%,-3.5,-5,-6%,?,?
Cc1cccc(N2CCN(S(=O)(=O)c3c(C)noc3/C=C/N(C)C)CC2)c1C,-1.3%,5%,-9.0,-3,7%,-8,?
COc1cc(CC(=O)Nc2ccc3nc(C)sc3c2)cc(OC)c1OC,-0.2%,-3%,?,nt,10%,14,-29%
COc1ccc2c(c1)c1ccccc1n2C,?,-19%,2.3,4,19%,29,30%
COc1ccc(C2=NN(Cc3c(F)cccc3Cl)C(=O)CC2)cc1,1.8%,?,0.1,nt,-9%,-15,-43%[inhibitor]
CCOc1cc(/C=C(\C#N)C(=O)Nc2ccccc2C(=O)O)ccc1OC(=O)c1ccc(C)cc1,nt,-4%,?,7,-12%,-10,?
O=[N+]([O-])c1cccc(/C=C/c2ccccn2)c1,-1.5%,-21%,-2.4,0,8%,-10,30%
COCCNC(=O)c1nc2c(nnn2Cc2cc(C)ccc2C)c(=O)[nH]1,0.3%,-25%,-0.3,6,?,-16,?
CC1(C)CC2CC(C)(CN2S(=O)(=O)c2cccc(C(=O)O)c2)C1 (stereo not given),1.0%,-6%,nt,11,nt,20,-20%
C#CCOCCOCCOCCNc1nc(N2CCN(C(=O)C([C@@H](C)O)n3cc([C@@H](N)CCCCN)nn3)CC2)nc(N2CCN(C(=O)C([C@@H](C)O)n3cc([C@@H](N)CCCCN)nn3)CC2)n1 (stereo not given in full),1.2%,9%,nt,-9,nt,nt,3%
COc1cc(CC(=O)O)c(C(C)=O)cc1OC,-0.4%,11%,-2.8,15,25%,1,?
O=C(NNC(=O)C1CCC(C(=O)NNC(=O)c2cccs2)CC1)c1cccs1 (stereo not given),nt,8%,-5.3,-5,22%,2,19%[15.4 µM]
O=C(Nc1ccc(Cl)cn1)c1ccccc1SCc1ccccc1,-8.3%,-8%,-2.2,12,5%,-12,4%[15.4 µM]
O=C(NN1CC(=O)N(c2cc(Cl)cc(Cl)c2)CC1=O)c1cccs1,-0.5%,4%,0.5,nt,20%,12,12%
CC(C)NC(=O)c1onc(CSc2ccccc2F)c1C(=O)O,-1.2%,6%,2.8,-1,7%,10,nt
Cc1ccc(S(=O)(=O)N(C)c2ccc(C(=O)NCC(c3ccco3)N(C)C)cc2)cc1 (stereo not given),0.2%,-2%,nt,-3,nt,-9,-21%
O=C1OC(/C(=C\Nc2ccccc2)[N+](=O)[O-])c2ccccc21 (stereo not given),nt,-5%,-1.7,3,5%,5,4%[15.4 µM]
COc1ccc(/C=C/C(=O)Nc2cc(C(F)(F)F)ccc2Cl)cc1,-15%,-8%,3.3,6,-11%,-4,-53%[inhibitor]
Cc1cc(NC(=O)CSc2nc(CC(C)(C)C)nc3c2c(=O)n(C)c(=O)n3C)no1,0.4%,-9%,3.4,-2,12%,-9,-65%[inhibitor]
CCNC(=O)NC(=O)COC(=O)CCCSc1nc2ccccc2[nH]1,0.3%,-14%,-0.5,15,10%,-25,-12%[15.4 µM]
CCOC(CCn1c(SCc2cccc([N+](=O)[O-])c2)nc2ccccc2c1=O)OCC,0.7%,-39%,3.4,0,0%,-2,-10%[15.4 µM]
CCC(NC(=S)NC1CCCCC1)c1ccccc1 (stereo not given),nt,nt,2.4,nt,9%,-20,nt
O=C(C[n+]1ccccc1)Nc1ccccc1,-2.1%,-6%,nt,nt,nt,nt,-10%
CC1CCN(c2ccc3c(c2)S(=O)(=O)c2cc(C(=O)O)ccc2C3=O)CC1,-5.0%,nt,nt,0,nt,nt,-11%
CCN(CC)CCNC(=O)CS(=O)Cc1nc(-c2ccc(Cl)cc2)oc1C (stereo not given),?,12%,1.1,-2,14%,3,-15%
NC(=O)C1CCN(C(=S)c2ccc(-c3ccc(Br)cc3)o2)CC1,nt,-6%,-1.5,-6,16µM*,0&17,-1%[15.4 µM]
CCCSc1nc2sc3c(c2c(=O)[nH]1)CC(C)(CC)OC3 (stereo not given),nt,-4%,-0.7,1,-4%,-4,7%

The results go on.
compound,ClpP mod,gsp antag,Menin MLL FP FL,CtBP-E1A inh,Sfp PPTase inh,TRPV1 potentiator,gsp ag
Cc1cccnc1CCNC(=O)C1CCC(=O)N(Cc2cccc(F)c2)C1 (stereo not given),-0.9%,17%,nt,-6,12%,-5,6%[15.4 µM]
CC1CCCCN1CC(O)COCc1ccc(Cl)cc1 (stereo not given),nt,8%,0.7,6,-7%,4,3%[15.4 µM]
Cc1ccc(S(=O)(=O)NC(=O)c2ccc(-c3ccc(C)c4ccccc34)o2)cc1,4.1%,-9%,3.9,-17,-3%,13,15%
COCCn1ccc2c(OCC(=O)NCc3ccc(C)cc3)cccc2c1=O,28µM*,-10%,nt,0,nt,8,-32%[inhibitor]
COc1ccc2ccc3c(c2c1)N=C[C@]1(O3)N(C)c2ccccc2C1(C)C,?,-3%,4.8,-26,50µM*,3,-1%
CC(C)(C)C(=O)c1cnc(Nc2ccccc2Cl)s1,-8.2%,-4%,-0.3,4,-15%,-22,?
CCOC(=O)[C@H]1[C@H]2COc3cc(OC)ccc3[C@@H]2N2C(=O)c3ccc(C)cc3NC(=O)[C@@]12C,-0.7%,-9%,nt,-2,nt,5,nt
COc1ccc(-c2nc3ccccc3c(=O)n2CCOc2ccccc2C)cc1,?,-2%,1.6,nt,2%,3,-32%[inhibitor]
O=C(CCCNC(=O)c1ccc(Cl)cc1)Nc1ccccc1C(F)(F)F,1.0%,3%,4.6,nt,-1%,19,-8%
O=C(Cc1ccccc1)Nc1ccc(NC(=O)c2ccco2)nc1,-1.8%,9%,-0.7,-4,12%,0,-66%[inhibitor]
CCc1sc(C(=O)NC(C)C2CCCO2)cc1Br (stereo not given),-2.2%,?,1.5,-3,13%,2,30%
CC1(C)c2ssc(=S)c2-c2ccccc2N1C(=O)c1ccco1,0.7%,-14%,2.2,-18,-11%,6,3%
CC(C)CN(C(=O)COC(=O)c1ccc(-c2ccccc2)cc1)C1CCS(=O)(=O)C1 (stereo not given),-1.4%,1%,1.7,-2,13%,3,-14%[15.4 µM]
Cc1ccc(Oc2ncccc2C(=O)NCC(=O)O)cc1,-1.6%,-3%,-5.9,6,27%,-13,-4%[15.4 µM]
COC(=O)c1c(NC(=O)C2CCCCC2)sc2c1CCN(C(C)C)C2,-10%,-6%,-4.4,-8,-2%,14,-1%
O=C(CSc1nc2ccccc2[nH]1)Nc1ccc(F)c(F)c1,0.0%,-33%,-2.8,6,-3%,2,-8%
Cc1ccccc1OCC(=O)Nc1ccccc1CO,2.0%,6%,2.0,17,20%,-6,?
O=C(CN1C(=O)NC2NC(=O)NC21)NN=C1CCCC1 (stereo not given),-1.6%,3%,0.3,-21,20%,-12,-13%[15.4 µM]
CC(=O)OCN(C#N)c1nc(N(C)C)nc(N(C)C)n1,0.2%,-3%,1.7,5,20%,1,-3%
Cc1ccc(-n2nnc(-c3cccnc3Cl)n2)cc1,-1.5%,8%,-6.2,7,9%,7,12%
O=S(=O)(N/N=C/c1ccc2c(c1)OCCO2)c1ccc(Cl)cc1,-1.6%,?,2.6,9,19%,-8,7%
CCCS(=O)(=O)N1CCN(C(=O)COc2ccc(-c3ccccc3)cc2)CC1,-1.1%,-3%,-7.9,-3,-1%,19,-48%[inhibitor]
CCc1ccccc1NC(=O)C1CCN(C(=O)c2cccs2)CC1,nt,6%,-2.4,5,5%,-12,4%[15.4 µM]
Cc1ccc(NS(=O)(=O)c2ccc(NS(=O)(=O)c3cccs3)cc2)cc1,1.7%,-16%,-1.8,0,21%,25,-8%
O=C(NCc1ccccn1)[C@@H]1C[C@H]1[C@@H](NP(=O)(c1ccccc1)c1ccccc1)c1ccccc1,3.5%,2%,1.6&-2.5,3,8%&20%,-38,nt
Cc1cc2cc(CN(C(=O)C3CC3)C3CCCC3)c3nnnn3c2cc1C,-1.9%,-19%,0.6,6,-19%,0,0%
COc1ccc(N2CCN(C(c3cc4cc(C)ccc4[nH]c3=O)c3nnnn3Cc3ccccc3)CC2)cc1 (stereo not given),-13%,-11%,-1.5,-20,-15%,12,-1%
O=C(O)c1ccc(OC(F)(F)C(F)C(F)(F)F)cc1 (stereo not given),-1.4%,-15%,-0.8,5,14%,6,2%
O=[N+]([O-])c1ccc(Sc2nnnn2-c2ccccc2)c(Cl)c1,0.6%,-5%,-1.2,-13,-11%,19,-13%
CCCn1nc(C(=O)Nc2nc3ccccc3[nH]2)c2ccccc2c1=O,nt,-21%,-2.6,-13,?,-26,-25%

(next part)
compound,ClpP mod,gsp antag,Menin MLL FP FL,CtBP-E1A inh,Sfp PPTase inh,TRPV1 potentiator,gsp ag
c1ccc(-c2cc3c(N4CCN(c5ncccn5)CC4)ncnc3s2)cc1,nt,nt,6.2,-14,-14%,-1,2%[15.4 µM]
COC(=O)C1CN(C(=O)C(C)Oc2ccc(F)cc2)c2ccccc2O1 (stereo not given),-1.4%,2%,-0.4,7,13%,-6,-11%
Cc1ccc(S(=O)(=O)/N=C(\N)Nc2nc(C)c3ccccc3n2)cc1,-13%,13%,2.7,-3,89µM*,-12,-11%
CCCCc1nnc(NC(=O)CSc2nc(=O)cc(N)n2-c2cccc(C)c2)s1,-3.3%,6%,-1.3,-2,2%,3,-6%
N/C(=N/O)c1nc(N2CCCC2)nc(N2CCCC2)n1,-0.6%,-17%,nt,5,nt,3,-25%[15.4 µM]

Source: PubChem BioAssay
